Screening data as filed in PubChem BioAssay.
Hsc70: Hsc70 inhibitors, probe displacement, primary screen, biochemical, fluorescence polarization (AID 568); Hsc70 fluorescence polarization, probe displacement; higher % means a stronger effect; strong numbers were not always called active; one-dose displacement, % at 20 µM; IC50 in µM for titrated hits; 83,000 tested, under 10 active;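 active = displacement above 50% without optical interference and an IC50 on retest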;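 also: ATPase domain with a fluorescein-tagged ATP probe; 0% = vehicle and 100% = excess ADP; read after one hour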
WNV NS2B-NS3 inh: WNV NS2B-NS3 proteinase inhibition. P06935. WNV NS2B-NS3 protease, fluorogenic substrate Ex360/Em465; hits give low values. z-score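 (tested at a level between 10 and 100 µM)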. 65,000 tested, 0.18% active;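 active = z-score at -3 or under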;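 also: score is relative to mean and spread of the compound wells of a plate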
Target sequence (P06935 1371-1501 limits assumed): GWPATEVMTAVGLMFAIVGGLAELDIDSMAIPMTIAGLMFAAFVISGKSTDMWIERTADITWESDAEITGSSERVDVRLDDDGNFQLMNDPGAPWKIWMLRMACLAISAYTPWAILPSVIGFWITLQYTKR
Target sequence (P06935 1502-1679 limits assumed): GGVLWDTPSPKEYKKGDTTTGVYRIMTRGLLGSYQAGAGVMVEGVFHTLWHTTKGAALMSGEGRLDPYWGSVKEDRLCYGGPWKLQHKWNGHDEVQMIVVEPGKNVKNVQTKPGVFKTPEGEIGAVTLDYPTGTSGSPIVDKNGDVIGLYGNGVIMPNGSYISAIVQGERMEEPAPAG
MT1-MMP reporter: MT1-MMP gene expression reporter suppression – cell-based, luciferase reporter, luminescence (AID 618); MT1-MMP promoter luciferase reporter cells, luminescence; calls from a first round at 10 µM; hits with a dose series show EC50 in µM; 87,000 tested, 0.62% active;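 active = over half of the reporter light lost at 10 µM or EC50 under 50 µM; inactive = the rest and hits that failed the dose series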;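 also: actives suppress MT1-MMP promoter-driven transcription so potencies describe inhibitors; HT1080 fibrosarcoma cells; overnight exposure; toxic or luciferase-blocking compounds were not removed from the actives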
* hit, by the source's call; i = inactive; nt = not tested or not shown. This is a subset. The share of hits here may be higher or lower than overall.

SMILES	Hsc70	WNV NS2B-NS3 inh	MT1-MMP reporter
COc1ccc(CC(C)N2CCN(c3cccc(C(F)(F)F)c3)CC2)cc1OC (stereo unspecified)	3.9%	nt	i
CCCCNC(=O)COC(=O)c1ccc(Cl)c(S(N)(=O)=O)c1	-5.2%	nt	i
Cc1[nH]c(=O)[nH]c(=O)c1S(=O)(=O)NCCOC12CC3CC(CC(C3)C1)C2	-1.2%	-0.42	i
CCC1Oc2nc(SC)nnc2-c2ccccc2N1C(=O)c1ccccc1 (stereo unspecified)	1.8%	-0.48	i
O=C(c1ccco1)N1CCN(C(=O)C2CCCc3c2[nH]c2ccc(Cl)cc32)CC1 (stereo unspecified)	8.2%	-1.8	i
CCn1c(=O)cc(OCC(=O)Nc2ccc(Cl)cn2)c2ccccc21	-5.4%	1.2	i
CC#CCCCC(=O)Nc1cccc(C(=O)O)c1	0.8%	-1.1	i
COc1ccccc1CC(NC(C)=O)C(=O)N1CCN(C(=O)Nc2ccccc2Cl)CC1 (stereo unspecified)	-3.1%	-1	i
COc1ccc(NC(=O)c2ccc(-n3nc(C)c[n+]3[O-])cc2)cc1	-5.0%	2.2	i
COc1ccccc1C(=O)n1nc(-c2ccccc2)nc1N	-0.5%	-0.55	i
CCOC(=O)c1cc(CC)sc1NC(=O)CCC(=O)O	-2.5%	0.04	i
O=S(=O)(Nc1ccc2c(c1)OCO2)c1ccccc1	5.0%	nt	i
CC(=O)Oc1ccc(NC(=O)CCC2CCCCC2)c(C(=O)O)c1	0.7%	nt	i
COc1ccc(Cc2nc(-c3ccccn3)no2)cc1	1.7%	nt	i
CCOC(=O)c1ccc(NC(=O)c2nn(C)cc2Br)cc1	-6.2%	-0.55	i
Nc1c(C(=O)c2ccc(F)cc2)oc2ccccc12	8.8%	-0.7	i
C=CCSC1=C(C#N)C(c2ccccc2OCC)C(C#N)C(=O)N1 (stereo unspecified)	1.2%	-0.7	i
COc1ccc(C)cc1S(=O)(=O)N1CCCCC1	-14%	-0.62	i
O=S(=O)(Nc1cccnc1Cl)c1ccc2c(c1)OCCO2	-3.3%	nt	i
CCOCCNC(=O)c1ccc2c3c(cccc13)CC2	0.3%	nt	i

4 entries out of the list, arranged by length of the SMILES, rising.
SMILES	Hsc70	WNV NS2B-NS3 inh	MT1-MMP reporter
COc1ccc(C)cc1S(=O)(=O)N1CCCCC1	-14%	-0.62	i
CCOCCNC(=O)c1ccc2c3c(cccc13)CC2	0.3%	nt	i
COc1ccccc1C(=O)n1nc(-c2ccccc2)nc1N	-0.5%	-0.55	i
COc1ccc(NC(=O)c2ccc(-n3nc(C)c[n+]3[O-])cc2)cc1	-5.0%	2.2	i

The results go on:
SMILES	Hsc70	WNV NS2B-NS3 inh	MT1-MMP reporter
COC(=O)C1(C#N)C(c2ccccc2)C1(C(=O)OC)C(=O)OC (stereo unspecified)	-1.9%	0.63	i
Cc1cc(NCC(C)C)n2ncnc2n1	6.0%	nt	i
CCN(CC)C(=O)CSc1nnc(-c2ccc(S(=O)(=O)N3CCCC3)cc2)o1	5.5%	nt	i
Cc1nnc(NC(=O)CSc2nnc(-c3ccc(S(=O)(=O)N4CCCC4)cc3)n2C)s1	-1.1%	-1.1	i
CCCCCSc1nnc(-c2cc(Br)ccc2N)c(=O)[nH]1	0.1%	0.55	i
CCOC(=O)C1C(=O)NC(C)C1c1ccccc1 (stereo unspecified)	2.1%	-0.31	i
CSc1nc2c(c(-c3ccccc3)c1C#N)CCC2	-4.2%	nt	i
C=CCOc1ccc2c(c1)C(=NO)c1cc(OCC=C)ccc1-2	-8.8%	nt	i
O=C(CN1C(=O)c2ccccc2S1(=O)=O)NCc1ccccc1Cl	1.0%	0.54	i
CC1CN(S(=O)(=O)c2ccc(NC(=O)c3cc(-c4ccccc4O)n[nH]3)cc2)CC(C)O1 (stereo unspecified)	-0.6%	0.14	i
Cn1c(NC(=O)CC(C)(C)C)cc(=O)n(C)c1=O	-2.2%	-0.06	i
O=C(COc1nnc2ccccn12)N1CCN(S(=O)(=O)c2ccccc2)CC1	2.7%	0.06	i
O=C(O)c1ccc2c(c1)[C@@H]1C=CC[C@@H]1[C@H](c1ccccn1)N2	30%	-0.8	i
CC1CCN(c2oc(-c3ccccc3F)nc2C#N)CC1	9.2%	0.74	i
CCCCNC(=O)CN1C(=O)C(CC)Oc2ccc(Cl)cc21 (stereo unspecified)	0.5%	0.62	i
COc1ccc(Cl)cc1NC(=O)NCCCl	-4.0%	nt	i
COC(=O)c1c(NC(=O)c2ccc(Br)s2)sc2c1CCC2	-13%	-0.67	i
COC(=O)C1=C(C)N(Cc2ccco2)C(=O)C1	-1.3%	0.85	i
CCSC1=C(C#N)C(c2ccc(C)s2)CC(=O)N1 (stereo unspecified)	1.3%	-0.43	i
Cc1ccc(C(C(=O)NC2CCCC2)N(Cc2ccc(F)cc2)C(=O)c2csnn2)o1 (stereo unspecified)	-3.1%	1.2	i
CCCC1(CCC)NC(=O)N(CC(=O)Nc2cccc(OC)c2)C1=O	8.0%	1.7	i
CCOC(=O)c1cc(NC(=O)c2c(C)noc2C)cc(C(=O)OCC)c1	0.3%	-0.4	i
N#Cc1nc(-c2ccccc2Cl)oc1N1CCCCC1	2.5%	-0.4	i
COc1cccc(NC(=O)N2CCCC2C(=O)NC(C)C)c1 (stereo unspecified)	-0.4%	-0.86	i
Clc1ccccc1CNc1ncnc2nc[nH]c12	1.2%	-0.47	i
CCn1nnc(NC(=O)c2c(OC)cccc2OC)n1	-6.1%	-0.22	i
O=C(c1cccc(S(=O)(=O)NCc2ccccc2)c1)N1CCN(Cc2ccccc2)CC1	-0.2%	nt	i
Cc1ccc2c(c1)c1c(n2CC(O)Cn2nc(C)c(Br)c2C)C(=O)CCC1 (stereo unspecified)	-5.6%	-0.18	i
Cc1ccc(N(C(=O)Cn2nnc3ccccc32)C(C(=O)NCc2ccco2)c2cccnc2)cc1 (stereo unspecified)	-3.9%	0.47	i
CCCCN1C(=O)C(O)=C(C(C)=O)C1c1ccc(OC)cc1OC (stereo unspecified)	-3.4%	-0.48	i
Cc1cc(NC(=O)CCSc2nc(-c3ccco3)cc(C(F)(F)F)n2)n(-c2ccccc2)n1	-0.7%	nt	i
COc1ccccc1S(=O)(=O)n1cc(Cc2ccccc2)c(N)n1	-4.3%	-0.1	i
O=C(c1ccc(CS(=O)(=O)c2ccc(Br)cc2)o1)N1CCCCCC1	1.8%	0.0046	i
CCOC(=O)c1ccc(CNC(=O)CSc2nnnn2-c2ccc(Cl)cc2)o1	-1.8%	-0.49	i
O=C(Nc1ccc2c(c1)OCO2)c1cccs1	-1.9%	-0.52	i
CCOC(=O)N1CCC(NC(=O)c2ccc3c(c2)N(C)CCS3)CC1	-6.3%	-0.25	i
O=C(NCCO)c1cc2c(s1)CCC2	3.6%	nt	i
CCCCOc1ccc(-c2c(C#N)c(N)nc(SCC(N)=O)c2C#N)cc1	-7.9%	-0.49	i
Cn1c(N)c(C(=O)COC(=O)C2(c3ccccc3F)CCCC2)c(=O)n(C)c1=O	-3.2%	-0.61	i
O=C(Nc1ccc(Cl)cn1)c1ccc2ccccc2n1	5.6%	nt	i
CCc1cc(=O)oc2cc(OC(C)=O)cc(OC(C)=O)c12	-2.1%	4.8	i
O=C1CC(N2CCN(c3ccccc3)CC2)C(=O)N1c1ccc2c(c1)OCCO2 (stereo unspecified)	1.6%	-0.63	i
O=C(CN1c2cccc3cccc(c23)S1(=O)=O)NCc1ccc2c(c1)OCO2	-2.6%	0.72	i
Cc1ccc2c(c1)N(C(C)C(=O)NCCc1ccccc1)C(=O)CO2 (stereo unspecified)	-12%	-1.1	i
Cc1cc(C)nc(N2CCCC(C(=O)NCc3cccs3)C2)n1 (stereo unspecified)	-2.7%	-0.37	i
Cc1ccc(-c2ccc(=O)[nH]n2)cc1	6.1%	-0.28	i
CC1(C)CC(=O)C(C=NCC(N)=O)=C(O)C1	0.5%	-0.03	i
CC(C)(C)NC(=O)CN1CCC(O)(c2ccccc2)CC1	2.9%	1.8	i
CCN(CCCNC(=O)COc1cc(=O)n(CC)c2ccccc12)c1ccccc1	-1.8%	0.04	i
COc1ccc(N(CC(=O)Nc2cccc(C)c2C)S(=O)(=O)c2c(C)n[nH]c2C)cc1	-4.8%	0.27	i
O=C(c1ccccc1Cl)N1CCc2ccccc2C1	-6.0%	-0.35	i
Cc1ccc(NC(=O)Cn2nc(C)c3ccccc3c2=O)cc1F	3.4%	1.1	i
CCOC(=O)c1oc2nc(C)c3c(c2c1N)CC(C)(C)OC3	4.3%	1.2	i
COc1ccc(-c2c(C)oc3c(CN4CCCCC4C)c(O)ccc3c2=O)cc1OC (stereo unspecified)	-2.7%	1.2	i
CCCn1c(=O)n(C)c(=O)c2c(SCc3cc(C(C)=O)ccc3OCC)nc(C3CC3)nc21	-25%	-0.98	i
O=C(COc1ccc(Cl)cc1)N1CCN(S(=O)(=O)c2ccccc2)CC1	-0.7%	nt	i
[O-][n+]1onc2c1CCc1nnc(-c3ccccc3)cc1-2	-3.0%	-0.24	i
COC(=O)c1ccc(CSc2nnc(-c3ccncc3)n2Cc2ccccc2)o1	0.2%	-1.2	i
COc1cccc(/C=c2\sc3nc(-c4cccs4)nn3c2=O)c1OC	-2.6%	-1.2	i
COc1ccc(C)cc1NS(=O)(=O)c1cc(C)ccc1C	-1.7%	nt	i

The list continues:
SMILES	Hsc70	WNV NS2B-NS3 inh	MT1-MMP reporter
Cc1noc(C)c1C(=O)OCC(=O)Nc1ccccc1Oc1ccccc1	6.4%	nt	i
CC(C)C(c1nnnn1Cc1ccccc1)N(Cc1ccco1)Cc1cccs1 (stereo unspecified)	-0.7%	-0.74	i
CC1Oc2ccccc2N(CC(=O)NCCc2ccccc2)C1=O (stereo unspecified)	-3.9%	1.9	i
Cc1cc(C(=O)COc2ncnc3sccc23)c(C)n1C1CC1	-4.5%	0.59	i
O=C(Cn1cnc2c(nnn2Cc2ccc(Cl)cc2)c1=O)NCc1ccco1	-3.2%	-1.5	i
Nc1c(C(=O)NCCN2CCOCC2)c2nc3ccccc3nc2n1-c1ccc2c(c1)OCO2	2.7%	-0.42	i
CCOC(=O)N1CCN(CC(=O)c2ccc3c(c2)CCN3)CC1	6.6%	-0.8	i
CCCCOn1c(C)c(C(=O)OCC)c2c3no[n+]([O-])c3ccc21	3.9%	3.4	i
CS(=O)(=O)N(CC(=O)NCc1ccco1)c1ccc(Cl)c(C(F)(F)F)c1	-2.1%	1.1	i
COc1ccc(-c2nn(-c3ccccc3)cc2C(=O)Nc2nccs2)cc1OC	2.5%	nt	i
CCn1c(SCC(=O)N2CCCC2)nc2c(c1=O)SC(C)C2 (stereo unspecified)	-0.1%	-0.68	i
O=C(Nc1nc2c(ccc3ccccc32)s1)c1ccco1	-0.5%	0.28	i
Cc1ccc(S(=O)(=O)N2CCCC2C(=O)NC2=NCCS2)cc1 (stereo unspecified)	-1.8%	-0.25	i
COc1ccc(OC)c(S(=O)(=O)N2CCCCCC2)c1	-5.3%	-0.5	i
COc1cc(C2C(C(=O)Nc3ccc(F)cc3)=C(C)Nc3nc(CCCO)nn32)cc(OC)c1OC (stereo unspecified)	-1.2%	0.14	i
COc1ccc(-c2nnc3ccc(SCC(=O)NCC4CCCO4)nn23)cc1 (stereo unspecified)	-1.0%	0.84	i
Clc1ccc(OCc2nn3c(C4CCCCC4)nnc3s2)cc1	-1.6%	0.09	i
COc1ccc(S(=O)(=O)N(CCc2ccccc2)CC(=O)NCCCO)cc1	9.0%	-0.11	i
CCOc1ccc(-c2nc(C#N)c(NCc3ccc4c(c3)OCO4)o2)cc1	1.0%	0.29	i
O=c1ccc2cc3c([nH]c4ccc(Br)cc43)oc-2c1O	0.9%	-0.09	i
Cc1ccc(S(=O)(=O)N2CCC(C(=O)N3CCC[C@H]3C(=O)NCc3ccco3)CC2)cc1	0.7%	-0.71	i
O=C(CSc1nccc(=O)[nH]1)Nc1ccc(Br)c(Cl)c1	3.9%	1.2	i
CCCC(=O)Nc1nnc(Sc2ccc(N(C)C)cc2)s1	-2.1%	-0.25	i
O=C(Nc1ccc(S(=O)(=O)NCCc2ccccc2)cc1)c1ccc(Br)o1	1.0%	0.12	i
O=C(Nc1cccc(S(=O)(=O)N2CCOCC2)c1)c1cc2c(s1)CCC2	-9.7%	nt	i
CCOc1cccc(CNn2cnnc2)c1OCc1ccccc1Cl	1.1%	nt	i
O=C(C1CC1)N1CCN=C1SCc1ccccc1Cl	-1.9%	0.22	i
O=C(Nc1ccc2c(c1)OCO2)N1CCN(C/C=C/c2ccccc2)CC1	-6.8%	1.3	i
CC(=O)C1=C(Nc2ccc(C)cc2)CC(C)(O)C(C(C)=O)C1c1ccco1 (stereo unspecified)	5.4%	-0.1	i
